Screening data as filed in PubChem BioAssay.
gsp agonist: qHTS for Agonist of gsp, the Etiologic Mutation Responsible for Fibrous Dysplasia/McCune-Albright Syndrome: qHTS; gsp mutant cells, cAMP HTRF, 30 min; control for the full effect not named in the record; Potency, µM (series often up to 76.9 µM), for inactives: at the top dose activation (cAMP increase), actives largely listed as activators; 340,000 compounds, 0.13% hits; AID 624287, 2012; active = well fitted activation curve with a large enough effect; inconclusive = small, poorly fitted or top-dose-only effect, or another doubt; inactive = no such curve, though single readings can be large or run the other way; cell line not stated here;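 note: phosphodiesterase inhibitor Ro 20-1724 added with compounds to block cAMP breakdown; potency is the fitted concentration of half-maximal effect; nearly all actives have a fitted effect of over 60% in size; about a fifth of the inactives were tested at one dose only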
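Cells in DMEM/10% FBS with G418 were pretreated with compounds in DMSO plus […] (300 uM stock) for 30 min at 37C. cAMP was measured by HTRF (cAMP-d2 plus anti-cAMP antibody-K) after 30 min at room temperature.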
TRPML1 inh: qHTS for Inhibitors of the Human Mucolipin Transient Receptor Potential 1 (TRPML1); Mucolipin-1 (Homo sapiens), Q9GZU1; TRPML1-inducible cells, Ca2+ dye fluorescence, FDSS; active compounds read low; inhibition of EC80 agonist-evoked calcium signal; activity change, negative = inhibition, % (no concentration beside the values); 390,000 compounds, 0.02% hits; AID 624415, 2012; in the data active means activity change below about -50%; inconclusive means about -30% to -50%; inactive means above about -30%;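 note: stimulus is agonist 54-4 at its EC80 concentration; % is set by controls: 0 for no effect and ±100 for the full control effect; compound concentration not given in the record; the text of the record puts the active cut at -80%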
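Calcium fluorescence in TRPML1-DL cells induced overnight with Tet: a 110 s read after compound pin addition, then a 110 s antagonist read after challenge with 54-4 at 4 uM final (EC80).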
TRPV1 potentiator: HTS Assay for Compounds that Act as Potentiators of the Vanilloid Receptor 1 | Transient receptor potential cation channel subfamily V member 1 (Homo sapiens), Q8NER1 | TRPV1-expressing cells, Fluo-8 calcium influx, capsaicin EC20 potentiation; host cell line not named in the record; control for the full effect not named in the record | potentiation, % at 8.33 µM | 320,000 compounds, 0.02% hits | AID 540277, 2011; active means potentiation above 80%; inconclusive means 30% to 80%; inactive means below 30%; note: 0% is about no effect
Target sequence (Q8NER1 whole entry, looked up): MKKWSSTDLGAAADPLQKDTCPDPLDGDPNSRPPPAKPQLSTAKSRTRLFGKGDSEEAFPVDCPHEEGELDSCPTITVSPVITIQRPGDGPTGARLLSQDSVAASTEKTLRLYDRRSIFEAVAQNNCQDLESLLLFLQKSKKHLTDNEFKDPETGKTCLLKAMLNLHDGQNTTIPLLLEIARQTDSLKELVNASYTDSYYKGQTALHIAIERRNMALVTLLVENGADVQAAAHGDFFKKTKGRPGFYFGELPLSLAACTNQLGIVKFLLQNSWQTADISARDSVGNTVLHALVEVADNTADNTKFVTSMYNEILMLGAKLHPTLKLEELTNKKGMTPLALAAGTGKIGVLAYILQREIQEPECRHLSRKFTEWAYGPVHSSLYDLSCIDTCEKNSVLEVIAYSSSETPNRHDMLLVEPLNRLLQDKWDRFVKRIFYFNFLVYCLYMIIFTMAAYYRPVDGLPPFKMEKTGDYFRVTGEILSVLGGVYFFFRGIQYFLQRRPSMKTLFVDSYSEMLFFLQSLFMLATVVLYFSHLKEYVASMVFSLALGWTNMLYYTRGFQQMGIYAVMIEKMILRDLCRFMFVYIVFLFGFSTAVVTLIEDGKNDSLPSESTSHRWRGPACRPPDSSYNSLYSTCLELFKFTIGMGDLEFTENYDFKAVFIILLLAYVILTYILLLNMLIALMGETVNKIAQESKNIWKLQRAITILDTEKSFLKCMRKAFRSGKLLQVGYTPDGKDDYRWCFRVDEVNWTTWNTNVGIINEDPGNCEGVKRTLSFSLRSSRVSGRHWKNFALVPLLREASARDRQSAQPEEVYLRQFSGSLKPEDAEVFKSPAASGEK
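Cells expressing TRPV1 were dye-loaded with Fluo-8 and read kinetically: 10 s baseline, 3 min after compound (agonist portion), then 2 min after EC20 capsaicin (allosteric enhancer portion). Calcium-bound dye fluorescence at 480/520 nm.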
gsp antag: qHTS for Antagonists of gsp, the Etiologic Mutation Responsible for Fibrous Dysplasia/McCune-Albright Syndrome: qHTS; gsp-mutant cells, cAMP HTRF, 30 min; control for the full effect not named in the record; Potency, µM (top dose mostly 76.9 µM), for the others: at the highest dose activity change, negative = inhibition, hits mostly inhibitors; 340,000 compounds, 0.4% hits; AID 624288, 2012; active = falling curve of any shape with a large fitted effect; inconclusive = falling curve, mostly with a smaller effect; inactive = flat or rising curve; cell line not stated here;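 note: intracellular cAMP measured with PDE inhibitor Ro 20-1724 present during compound exposure; potency is the fitted concentration of half-maximal effect; % is set by controls: 0 for no effect and ±100 for the full control effect; nearly all actives have a fitted effect of over 65% in size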
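Measurement of cellular cAMP by homogeneous time-resolved fluorescence following a 30 min compound exposure at 37C. The PDE inhibitor […] was present throughout; the assay buffer was DPBS with 0.05% BSA and 0.005% Tween 20.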
Menin MLL FP FL: qHTS Assay for Inhibitors Targeting the Menin-MLL Interaction in MLL Related Leukemias: Competition With Fluorescein Labeled MLL-derived Peptide; Fluorescence polarization, fluorescein-MLL peptide displacement from menin; FP activity change, % at 61.4 µM; 290,000 tested, under 10 active; AID 1766, 2009; inconclusive = falling polarisation curve, or a change in total fluorescence; inactive = total fluorescence flat and polarisation flat or rising; no compound was filed as active; the % refers to the polarisation; negative = inhibition;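 note: % of control where 0% means no effect; inhibitors lower the polarisation; unlabelled MLL peptide was the positive control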
Sfp PPTase inh: qHTS Assay for Inhibitors of Bacillus subtilis Sfp phosphopantetheinyl transferase (PPTase) | 4'-phosphopantetheinyl transferase ffp (Bacillus subtilis), Q9F4F7 | Biochemical Sfp PPTase activity, qHTS | Potency, µM, inactives show max response, negative = inhibition, hits mostly inhibitors | 310,000 compounds, 3.5% hits | AID 1490, 2009; active = well fitted inhibition curve with a large enough effect; inconclusive = small, poorly fitted or top-dose-only effect, or another doubt; inactive = no such curve, though single readings can be large or run the other way;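 note: the enzyme is Sfp with the accession as filed and its product quenches rhodamine fluorescence; potency is the fitted concentration of half-maximal effect; 0% = enzyme reaction without inhibitor and -100% = no enzyme wells; top concentration of the series not given in the record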
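Fluorescence-quenching assay with 15 nM Sfp, 5 uM rhodamine-CoA and 12.5 uM BHQ-2-labelled ybbR peptide in pH 7.6 Hepes/MgCl2 buffer. Enzyme was pre-incubated with compound for 15 min at room temperature. Rate was taken from the 30-min fluorescence change (525/598 nm).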
ClpP mod: qHTS Assay for Activators of ClpP; Potency, µM (highest dose often 57.5 µM), for the others: at the top dose activity change, negative = active; purified B. subtilis ClpP, FRET peptide cleavage, 20 min; 340,000 compounds, 1.9% hits; ATP-dependent Clp protease proteolytic subunit (Bacillus subtilis (strain 168)), P80244; active = well fitted falling curve with a large enough effect; inconclusive = small, poorly fitted or top-dose-only effect; inactive = no such curve, though single readings can be large or run the other way; note: potency is the fitted concentration of half-maximal effect; the source files actives as falling curves though it sought activators and does not explain the sign; nearly all actives have a fitted effect of over 65% in size; many hits overshoot -100%
Target sequence (P80244 whole entry, looked up): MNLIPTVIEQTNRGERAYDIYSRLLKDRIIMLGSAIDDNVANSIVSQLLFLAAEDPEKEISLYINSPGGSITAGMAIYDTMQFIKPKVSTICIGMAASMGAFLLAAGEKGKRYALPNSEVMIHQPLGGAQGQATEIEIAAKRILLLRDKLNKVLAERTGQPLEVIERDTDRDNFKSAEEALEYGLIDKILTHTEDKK
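ClpP 10 microg/mL final, pH 8 Tris/KCl buffer with BSA, glycerol, Tween-20; compound pinned in; FRET-FV substrate; RT 20 min; Ex320/Em430; ΔFRET vs ADEP 5.8 microM, DMSO, no enzyme.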
The depositor's hits bear a star; ? = inconclusive; · = no result given; & = joins results of further samples; [ ] = another dose, or the depositor's remark.

SMILES	gsp agonist	TRPML1 inh	TRPV1 potentiator	gsp antag	Menin MLL FP FL	Sfp PPTase inh	ClpP mod
COc1ccc(NC(=O)OCCn2c([N+](=O)[O-])cnc2C)cc1	-3%[15.4 µM]	-13	?	-8%	-0.2	9%	·
CSc1n[nH]c(NC2=CC(=O)CCC2)n1	-3%	7	-3	7%	3.6	0%	-3.4%
Cc1cc(C(F)F)n2ncc(C(=O)N3CCc4ccccc4C3)c2n1	9%	50	1	2%	1.8	3%	-8.0%
CC(=O)N1c2c(cc(Br)cc2S(=O)(=O)NCc2ccc3c(c2)OCO3)CC1C (stereo not given)	-1%	-3	6	-14%	-0.6	15%	-1.1%
COc1ccccc1N1CCN(C(=O)c2noc(C)c2[N+](=O)[O-])CC1	1%	-6	-7	10%	·	1%	-1.2%
Cc1ccc(S(=O)(=O)CCc2ccccn2)cc1	1%	9	0	8%	-0.3	-3%	-0.1%
COc1ccc([N+](=O)[O-])cc1NC(=O)c1cn(-c2ccc(C)c(C)c2)c(=O)c2ccccc12	6%	14	?	3%	3.4	-10%	0.4%
COc1ccccc1C(=O)Nc1ccc2c(C)cc(=O)oc2c1	-25%[15.4 µM]	2	2	-25%	-1.5	8%	-0.9%
O=C(Nc1nnc(Cc2ccc(Cl)cc2)s1)c1ccco1	-26%	-9	15	9%	-1.7	9%	-0.5%
CC1(c2nnc(-c3cccc(Cl)c3)o2)CC(c2cccc(F)c2)=NO1 (stereo not given)	-5%	6	·	-3%	·	·	0.2%
CCOc1c(S(=O)(=O)N2CCCC2)ccc(Cl)c1Cl	-2%	12	-22	3%	0.3	-18%	1.0%
O=C(Nc1nccs1)c1ccc(Cl)cc1[N+](=O)[O-]	-3%	15	24	7%	2.1	17%	0.7%
COc1ccc(OC)c(NC(=O)CCNC(=O)Cn2cnc3ccccc3c2=O)c1	-16%	4&-3	?	5%	0.3	0%	0.2%&-0.8%
O=C(NC1CC1)c1cc2c(s1)CS(=O)(=O)C2	-2%[15.4 µM]	-29	20	12%	-0.4	-1%	·
COCC(=O)N1CCC(Oc2ccc(C(=O)NC3CCOC(C)(C)C3)cc2)CC1 (stereo not given)	-21%	-4	5	6%	-2.5	-5%	-0.8%
Cc1ccc(-n2ncc3c(NCCCN4CCCC4=O)ncnc32)c(C)c1	-48%[inhibitor]	9	-9	-2%	4.4	15%	?
Cn1cnnc1SCC(=O)Nc1sc2c(c1C(N)=O)CCC2	-1%	101	9	-7%	?	?	0.5%
CCN(C[C@H]1N[C@@](CC)(C(=O)OC)[C@H]2C(=O)N(Cc3ccccc3)C(=O)[C@@H]12)C(C)=O	·	-16	·	7%	·	·	-1.3%
O=C(c1ccccc1NS(=O)(=O)c1cccc([N+](=O)[O-])c1)N1CCCC1	-46%[inhibitor]	12	-3	-18%	0.9	5%	0.9%
C[C@H](CO)N1C[C@H](C)[C@@H](CN(C)Cc2ccncc2)Oc2c(NC(=O)C3CCCCC3)cccc2C1=O	22%	1	·	-10%	·	·	-2.3%
FC(F)(F)c1cc(-c2ccco2)nc(NCc2ccco2)n1	-1%	-16	5	15%	2.1	1%	-19%
COc1cccc(-c2nnc(SCCC(=O)O)n2C)c1	1%	-12	4	9%	-0.8	-11%	-0.8%
Nc1nc(-c2ccc(Oc3ccccc3)cc2)cs1	6%	1	-2	4%	11	-5%	1.7%
CC1CCCC(C)N1NC(=O)c1cccc(S(=O)(=O)N2CCc3ccccc32)c1 (stereo not given)	7%	12	-6	-2%	0.8	8%	·
O=C(Oc1ccccc1N1C(=O)C2CCCCC2C1=O)c1ccccc1 (stereo not given)	-1%	7	26	1%	-0.1	20%	-1.7%
Cc1ccc(OCCCC(=O)Nc2ccc(S(=O)(=O)N3CCOCC3)cc2)cc1	-26%	-10	-4	?	·	·	1.3%
O=C(NCCc1ccccc1)C1CCCN(S(=O)(=O)c2cccc3nonc23)C1 (stereo not given)	-5%	-11	3	2%	2.1	15%	-1.6%
COc1ccc(-c2nnc(SCC(=O)NCC3CCCO3)o2)cc1 (stereo not given)	-16%	4	3	7%	-2.4	1%	0.1%
CC(=O)N1CCc2ccccc2C1CC(=O)O (stereo not given)	29%	-9	4	3%	-5.3	-1%	·
C=C1[C@H]2O[C@H]2[C@@H](OC(C)=O)[C@@]2(C)[C@@H](OC(C)=O)C[C@@H](OC(C)=O)[C@@](C)(O)[C@@H]2[C@@H](OC(C)=O)[C@@]2(O)[C@@H](C)C(=O)O[C@H]2[C@H]1Cl	·	18	·	11%	·	·	-0.6%
Cc1ccc(NC(=O)CCc2nc3sc4c(c3c(=O)[nH]2)CCCC4)c(Br)c1	-9%	9	23	10%	·	·	-1.1%
COCc1nnc(NC(=O)CCSc2ccccc2)s1	-5%	40	-8	6%	-1.3	-11%	1.0%
CC(C)CNS(=O)(=O)c1ccc(S(=O)(=O)N2CCCN(Cc3ccccc3)C2)cc1	-21%	36	-6	3%	-0.4	-14%	1.2%
C/C(=N\Nc1ccc([N+](=O)[O-])cc1)c1ccc(N)cc1	10%	-11	28	0%	?	?	0.7%
C=CCNC(=S)N1CCc2c([nH]c3ccccc23)C1C (stereo not given)	-7%[15.4 µM]	3	9	1%	3.7	11%	2.1%
Cn1c(SCCOc2ccccc2Cl)nnc1-c1ccncc1	-45%	-14	-1	-6%	-0.8	-5%	0.6%
CNc1nc(SCC(=O)OC)nc(N2CCOCC2)n1	7%	-17	-2	9%	-0.4	?	-9.1%
COc1ccc(-n2ncc3c2CC(C)(C)CC3NC(=O)c2ocnc2C)cc1 (stereo not given)	-25%	-11	1	-9%	-1.7	15%	-1.4%
CCOC(=O)C1C(C(=O)OC)=C(C(=O)OC)c2ccccc2N1S(=O)(=O)C(F)(F)F (stereo not given)	·	-6	·	8%	1.6	12%	-6.9%
COCc1cc(=O)n2[nH]c(-c3cccc(Br)c3)cc2n1	6%	3	-6	-13%	-1.5	5%	?
COC(=O)N/N=C(\C)c1ccc(OC(F)F)cc1OC(F)F	?	-24	-7	13%	4.4	13%	-0.4%
CC1CCC(NC(=O)Cn2c(=O)oc3cc(S(=O)(=O)N4CCCC4)ccc32)CC1 (stereo not given)	9%	-3	-16	7%	1.4	6%	-0.7%
C[n+]1nc(Nc2ccccc2)sc1-c1ccc(C(=O)O)cc1	·	·	10	·	-1.5	10%	·
Nc1ncnc2c1ncn2[C@@H]1O[C@H](CNS(=O)(=O)c2ccc3c(c2)CCN(C(=O)C(F)(F)F)C3)[C@@H](O)[C@H]1O	·	12	·	7%	·	·	1.6%
Cc1nc2ccc(S(=O)(=O)Nc3cccc(-c4nc5cccnc5s4)c3C)cc2s1	12%	-12	16	35µM*	-1.6	-4%	-0.4%
O=C(Cc1ccc(O)cc1)N/N=C/c1cccs1	-30%[inhibitor]	-17	-23	4%	-0.7	-5%	-0.9%
COc1cc(C(=O)NCCC(=O)N2CCC3(CC2)NCCc2[nH]cnc23)cc(OC)c1OC	9%	-2	4	-20%	·	16%	-0.1%
O=S(=O)(SC1=NCCN1)c1ccccc1	-1%	40	·	7%	·	·	0.1%
CCOc1ccc(NC(=O)N2CCC(n3c(=O)[nH]c4ccccc43)CC2)cc1	11%	13	20	-9%	3.9	14%	-0.2%
CCC(OC(=O)c1cc2sccc2n1C)C(=O)NCc1ccco1 (stereo not given)	-11%	-2	-1	-13%	2.0	5%	0.5%
(more compounds)
SMILES	gsp agonist	TRPML1 inh	TRPV1 potentiator	gsp antag	Menin MLL FP FL	Sfp PPTase inh	ClpP mod
COc1cc(/C=C2/C(=O)NN(c3ccccc3)C2=O)cc(Br)c1O	-2%	2	-3	-18%	?	-11%	-0.7%
O=C(O)C(C1CCCCC1)C1(O)CCCC1 (stereo not given)	0%[15.4 µM]	-5	·	7%	·	·	1.1%
CCCCC(=O)Nc1nnn(CCC)n1	3%	-6	11	6%	1.1	7%	-2.1%
N#C/C(=C/c1cn(CC(=O)O)c2ccccc12)C(=O)Nc1ccccc1	-3%[15.4 µM]	-11	8	12%	24	10%	·
OCCOCCOc1ccc(-c2nn[nH]n2)cc1	22%	13	19	3%	-2.0	14%	·
CCOC(=O)N1CCN(C(=S)NC2CCCCC2)CC1	0%	-5	1	6%	-0.5	4%	-6.1%
Cc1cccc(N2C(=O)CC(NNc3nc4ccccc4s3)C2=O)c1 (stereo not given)	13%	14	7	-13%	3.9	10%	-2.0%
O=C(OCCN1C(=O)c2ccccc2C1=O)c1cc(S(=O)(=O)N2CCOCC2)ccc1F	12%	13	19	35%[activator]	-1.0	2%	-6.0%
COc1cccc(-c2noc(CCCC(=O)Nc3ccc(C(N)=O)cc3)n2)c1	7%	-6	-50	5%	1.7	-2%	-1.6%
COc1ccccc1N1CCN(C2CC(=O)N(c3cccc(Cl)c3)C2=O)CC1 (stereo not given)	-29%	22	3	0%	0.5	5%	1.1%
O=C1CCc2cc(S(=O)(=O)NCCc3ccccc3)cc3c2N1CC3	-25%	8	4	11%	·	·	?
